High-throughput results as filed in PubChem BioAssay.
RE007 growth inh = less growth of the S. pombe RE007 Vpr strain; S. pombe RE007 Vpr strain, BacTiter-Glo ATP luminescence, 24 h; control for the full effect not named in the record; hit rate 0.21% among 360,000; Potency, µM (doses to about 92.2 µM), without a hit: at the top dose activity change, negative = less growth; active = well fitted falling curve with a large enough effect; inconclusive = small, poorly fitted or top-dose-only effect; inactive = no such curve, though single readings can be large or run the other way;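 note: nearly all actives have a fitted effect of over 50% in size; the assay follows cell death caused by Vpr and the record does not say whether a fall means rescue or toxicity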
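Fission yeast RE007 carrying one integrated HIV-1 vpr copy, seeded at OD 0.01 in PMG+AL medium with 23 nL pinned compound. Grown 24 h at 30 degrees; viability read by BacTiter-Glo luminescence after 5 min.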
2A StopGo = lowers the luciferase signal of an FMDV 2A StopGo reporter | human cells with a luciferase reporter of 2A StopGo recoding; control for the full effect not named in the record | Potency, µM (doses to about 57.9 µM), for inactives: at the highest dose signal change, negative = less light | hit rate 1.2% among 410,000 | AID 1159524; active = well fitted falling curve with a large enough effect; inconclusive = small, poorly fitted or top-dose-only effect; inactive = no such curve, though single readings can be large or run the other way; tested in HEK293T cells; note: nearly all actives have a fitted effect of over 45% in size; luciferase light after 4 h
The depositor's hits bear a star; ? = inconclusive; [ ] = another dose, or the depositor's remark. % is set by controls: 0 for no effect and ±100 for the full control effect; potency is the fitted concentration of half-maximal effect. Not all compounds are listed; rates above refer to the full screens.

SMILES	RE007 growth inh	2A StopGo
COc1cc(OC)cc(C2=Cc3ccccc3C(CC(=O)c3ccco3)N2c2ccc(-c3cncnc3)cc2)c1 (stereo not drawn)	0.7%	-20.3%
CC(C)(C)Cc1c(-c2ccc(Br)cc2)nc2ccc(Br)cn12	-9.2%	-3.8%
O=CNc1cc(-c2cccc(O)c2)cn2c(-c3ccc(F)cc3)cnc12	21.6%	-19.6%
CN(C)CCNc1ncnc2c1ncn2[C@H]1CN(CCc2ccccc2)C[C@@H](CO)O1	-0.1%	-14.3%
Cc1ccc2c(c1)CCO[C@]21O[C@H](CCO)C[C@H](O)[C@H]1O	-6.3%	-25.4%
O=C(O)c1ccc2c(c1)S(=O)(=O)c1cc(N3CCN(c4cnccn4)CC3)ccc1C2=O	-21.7%	-10.0%
CC(=O)Nc1ccc(CN2C(=O)C(CCc3ccccc3)ON=C2c2cnccn2)cc1 (stereo not drawn)	0.8%[18.4 µM]	22.0%
COc1ccc(NC(=O)c2cc(-c3cc(F)ccc3OC(C)C)n[nH]2)cc1OC	-1.3%	-13.2%
Nc1nc2c(ccc3ccccc32)s1	-19.0%	68.7%[activator]
CC(C)(C)c1ccc(C(=O)N2CCC2(C)C(=O)NCCC#N)cc1 (stereo not drawn)	14.0%	-9.8%
CCc1nc2ccc(C(=O)NCCc3ccccn3)cn2c1N(C)Cc1cccs1	-29.6%[18.4 µM]	?
COc1cc(-c2coc3c(C(=O)NCc4cccc(Cl)c4)cccc23)ccc1O	-12.4%	?
C[C@H](CO)N1C[C@H](C)[C@@H](CN(C)S(=O)(=O)c2ccccc2C#N)OCc2cnnn2CCCC1=O	3.9%	-15.7%
NC(c1csc(Nc2nccc(C(F)(F)F)n2)n1)C1CCCCC1 (stereo not drawn)	-0.3%[18.4 µM]	-16.6%
COc1c(C)cc(C(O)c2ncc(-c3ccccc3C(F)(F)F)[nH]2)cc1C (stereo not drawn)	-21.7%[18.4 µM]	5.4%
Cc1cccc(CNC(=O)C2CCC(=O)N(CC3CCCCC3)C2)c1 (stereo not drawn)	-6.6%	-6.2%
C[C@@H]1CN([C@H](C)CO)C(=O)c2cc(Br)cnc2O[C@@H]1CN(C)C(=O)Cc1ccccc1	-17.9%	1.0%
O=C(NCc1cccc(C(F)(F)F)c1)c1ccc2sc(COCCO)nc2c1	8.1%	-0.7%
CCOC(=O)[C@]12CCC=C1N(Cc1cccc3ccccc13)C(=O)[C@H](CC(=O)NCCCOC)C2	-8.7%	-24.3%
CCNC(=O)C1(C)CCN1C(=O)CCc1cccc(Cl)c1 (stereo not drawn)	1.6%	-19.7%
Cc1cn([C@H]2C[C@H](O)[C@@H](CNCc3cc(Br)ccc3OCc3ccccc3)O2)c(=O)[nH]c1=O	2.3%	-25.3%
C=CCNc1ncnc2c1ncn2[C@H]1CN(Cc2cccs2)C[C@@H](CO)O1	2.6%	-25.1%
O=C(c1cccc(Cl)c1)N1CCC(=O)N([C@H](COCc2ccccc2)Cc2ccccc2)CC1	3.2%	-6.8%
CN(Cc1cn(Cc2cccc(C(F)(F)F)c2)nn1)C1CN(Cc2cn(Cc3cccc(C(F)(F)F)c3)nn2)S(=O)(=O)C1 (stereo not drawn)	-9.3%	0.0%
Cc1cccc(S(=O)(=O)NC(=O)C2(C)CCN2C(=O)Cc2cc(F)ccc2F)c1 (stereo not drawn)	19.1%	-8.4%
CC(C)CNc1ncnc2c1ncn2[C@H]1CN(CCc2ccccc2)C[C@@H](CO)O1	21.4%	-9.1%
CCCOC(=O)CC1C(=O)NCCN1Cc1ccccc1C (stereo not drawn)	-9.7%	-19.9%
CC1(c2nnc(Cc3ccccc3)o2)CC(c2ccc(F)cc2)=NO1 (stereo not drawn)	-9.5%	-19.9%
CC1(C(=O)NS(=O)(=O)c2cccc(C#N)c2)CCN1C(=O)c1ccccc1 (stereo not drawn)	7.7%	8.5%
COc1ccccc1Cc1c(-c2cccc(Cl)c2)nc2ccc(C)cn12	-25.9%	-6.7%

Given as a markdown table: 2 of the compounds above.
| Structure | RE007 growth inh | 2A StopGo |
| --- | --- | --- |
| COc1cc(OC)cc(C2=Cc3ccccc3C(CC(=O)c3ccco3)N2c2ccc(-c3cncnc3)cc2)c1 (stereo not drawn) | 0.7% | -20.3% |
| CCCOC(=O)CC1C(=O)NCCN1Cc1ccccc1C (stereo not drawn) | -9.7% | -19.9% |

(list continues)
SMILES	RE007 growth inh	2A StopGo
CC(=NNS(=O)(=O)c1ccc(C)cc1)c1ccccc1	-23.9%	71.0%[activator]
C[C@H](NC(=O)[C@@H]1CCCN1C(=O)[C@@H]1CCCN1C(=O)c1ccccc1)c1ccccc1	0.6%	0.0%
COc1ccc(NC(=O)c2cc(C3CCCCN3C(=O)CCc3ccccc3)on2)c(C)c1 (stereo not drawn)	22.4%	-6.8%
Cc1cn([C@H]2C[C@H](O)[C@@H](/C=C/C(=O)NCCN3CCOCC3)O2)c(=O)[nH]c1=O	5.9%	-21.6%
Cc1cc2c(cc1C)-n1nnnc1C(N(C)CCc1ccccc1)C(=O)N2 (stereo not drawn)	12.9%	-24.2%
O=Cc1c[nH]c2ccc(S(=O)(=O)N3CCCCC3)cc12	-1.3%	11.3%
C[C@@H]1CN([C@H](C)CO)S(=O)(=O)c2ccc(-c3ccc(C(=O)N(C)C)cc3)cc2O[C@H]1CN(C)C(=O)Cc1ccccn1	-0.9%	-23.6%
O=C(COc1ccc(C(=O)c2ccccc2)cc1)Nc1ncccc1O	-14.3%	-5.5%
CN(C)CCN(C)C1CN(C2CCCC2)S(=O)(=O)C1 (stereo not drawn)	-5.3%	-11.7%
CC(C)CC(N)c1csc(Nc2ncccn2)n1 (stereo not drawn)	-3.8%[18.4 µM]	6.2%
O=Cc1cc2c(cc1[B-](F)(F)F)OCO2	-9.4%	-14.1%
CN(C)c1cccc(NC(=O)c2ccc(-c3ccc(F)c(F)c3)c3ccoc23)c1	5.6%[18.4 µM]	19.7%
CC1(C(=O)Nc2ccccc2)Cc2c(-c3ccc4c(c3)OCO4)ccnc2O1 (stereo not drawn)	-6.2%	10.0%
COC(=O)Cn1c(=NC(=O)C2CC2)sc2c(C)cc(C)cc21	6.4%	?
COc1ccc(C2=Cc3ccccc3C(CC(=O)C3CC3)N2c2ccc(C#CCCO)cc2)cc1 (stereo not drawn)	-18.2%	-25.0%
O=C(O)Cn1cc(F)c(=O)[nH]c1=O	-3.7%	-16.5%
COC(=O)C[C@H]1C=C[C@H](NC(=O)Cc2ccccc2)[C@@H](CO)O1	0.3%	-8.6%
O=C(NCc1nnnn1-c1ccc(Cl)cc1)C(=O)c1c[nH]c2ccccc12	-2.5%	-12.6%
COCCCn1cc(CN2CC(N3CCN(C4CCN(C)CC4)CC3)CS2(=O)=O)nn1 (stereo not drawn)	-3.5%	0.0%
O=C(NCc1ccccc1CN1CCCC1)C1CCN(C(=O)c2ccc(Cl)cc2)CC1	-10.5%	-0.9%
CC1=C(C(=O)N(C(C)C)C(C)C)CC(CC(=O)NCCN2CCOCC2)C(=O)N1Cc1ccccc1 (stereo not drawn)	6.4%	-14.4%
Cc1cc(N2CCN(C(C(=O)NC3CCCC3)c3ccc(F)cc3)CC2)c2ccccc2n1 (stereo not drawn)	?	?
CC(C)(C)C(=O)Nc1nnc([C@H]2C[C@H](O)[C@@H](CO)O2)s1	-6.8%[18.4 µM]	-9.2%
O=C(N/N=C/c1ccccc1)c1ccc(N2CCCC2=O)cc1	2.6%	15.3%
CN(C)c1ccc(NC(=O)Nc2ccc3c(c2)c(=O)n(C)n3Cc2ccc(Cl)cc2)cc1	7.7%	-22.6%
Cc1nc2ccccc2n1C(C)c1nc2ccccc2n1CC(=O)c1ccsc1 (stereo not drawn)	-20.8%	-19.7%
O=C1CSC(=S)N1Cc1ccccc1	-6.0%	-19.7%
O=C1NC[C@H](CCCCN2C[C@H](Cc3ccc(O)cc3)N(CCC3CCCCC3)C(=O)C2=O)N(CCc2ccccc2)C1=O	-4.2%	-10.3%
CCCCCCCCN1C(=O)[C@H](CC(=O)NCCc2ccccc2OC)C[C@@]2(C(=O)OC)CC(C)(C)CC=C12	0.0%	-15.9%
Cc1noc(C)c1COc1ccccc1C(=O)N1CCN(S(=O)(=O)c2ccc(F)c(F)c2)CC1	-1.1%	-23.1%
Cc1ccc(NC(=O)COC(=O)CNC(=O)c2cccs2)cc1S(=O)(=O)N1CCOCC1	-11.6%	6.7%
C[C@H](CO)N1C[C@H](C)[C@@H](CN(C)S(=O)(=O)c2cccc(F)c2)Oc2ncc(Br)cc2C1=O	0.0%	-3.6%
OC(c1ccc(F)cc1)c1ncc(-c2ccccc2Cl)[nH]1 (stereo not drawn)	-6.2%	107.5%[activator]
CCOC(=O)[C@]12CCCC=C1N(Cc1ccco1)C(=O)[C@H](CC(=O)N1CCCCC1)C2	-27.7%	-13.2%
CC(C)c1ccc([C@@H]2O[C@H](C)CC3=C2C(=O)OC(C)(C)O3)cc1	-0.1%	-11.1%
CN(C)c1cccc(Nc2ccc(-c3ccc(OC(F)(F)F)cc3)cn2)c1	-25.3%	-0.2%
COc1ccccc1N1CCN(C(=O)CCCCCn2c(=S)[nH]c3cc4c(cc3c2=O)OCO4)CC1	-9.9%	?
CS(=O)(=O)Nc1cccc(NC(=O)C2Cc3c(-c4ccco4)ccnc3O2)c1 (stereo not drawn)	5.3%[18.4 µM]	-27.6%
COc1ccc(CCCNC(=O)C2Cc3c(-c4cccc(C(N)=O)c4)ccnc3O2)cc1 (stereo not drawn)	4.9%[18.4 µM]	0.0%
COc1ncccc1-c1nnn(-c2ccccc2Br)n1	-5.8%	37.1%[activator]
O=C(c1cccs1)N1C[C@H](n2cc(-c3ccc(F)cc3)nn2)[C@@H](O)C[C@@H]1c1ccc(Cl)cc1	-11.4%	-20.1%
O=C1Nc2ccccc2-n2nnnc2C1N1CCCN(Cc2ccc(F)cc2)CC1 (stereo not drawn)	5.2%	-7.3%
CC(=O)NCCNc1nc2cc(-c3ccccc3C)sc2c(=O)n1C	31.6%	5.3%
Clc1cccc(N2Cc3cc(-c4ccccc4)ccc3-n3nncc3C2)c1	1.7%	?
CC(C)Oc1ccc(F)cc1-c1cc(C(=O)Nc2ccccc2)[nH]n1	-1.3%	-12.4%
CCN(CC)CCN1CCN(c2cncc(-c3ccc4ccccc4c3)n2)CC1	-17.1%	-21.7%
COC(=O)c1ccc2cn[nH]c2c1	-23.7%	-4.8%
Cc1ccc(-c2cnc3cccnn23)cc1F	-19.5%[18.4 µM]	20.5%
CCCc1nc2c(s1)CCc1onc(-c3ccc(OC)cc3)c1-2	-8.4%	-18.5%
CC=CCn1c(SCCCc2ccccc2)nc2c1c(=O)[nH]c(=O)n2C	-1.6%	-12.5%
Cc1c(C(=O)N2CCCCCC2(C)C(=O)NCC(C)C)oc2ccccc12 (stereo not drawn)	5.8%[18.4 µM]	0.3%
C[C@H](CO)N1C[C@H](C)[C@@H](CN(C)C)OCc2cnnn2CCCC1=O	-3.9%	-15.7%
CC(=O)NC(c1ccccc1)c1nc(-c2cccs2)cs1 (stereo not drawn)	2.4%[18.4 µM]	-6.0%
O=C(NC(c1ccccc1)c1cnccn1)C1CCN(CCCOc2ccccc2)CC1 (stereo not drawn)	-3.9%	-14.4%
OC(c1ccccc1)c1ncc(-c2ccc(Cl)cc2)[nH]1 (stereo not drawn)	-23.9%	52.5%[activator]
CC(C)NC(=O)N(C)C[C@@H]1OCc2cn(nn2)CCCC(=O)N([C@H](C)CO)C[C@H]1C	3.1%	-19.4%
O=C(Cc1cccc(NC(=O)C2CCCN(C(=O)C3CCCC3)C2)c1)Nc1cccc(C(=O)N2CCOCC2)c1 (stereo not drawn)	-0.6%	-11.1%
CCc1nc2ccc(C(=O)NCCCN3CCCC3=O)cn2c1N(C=O)CC	-3.4%[18.4 µM]	0.0%
COC(=O)[C@]12CCCCC=C1N(Cc1ccccc1)C(=O)[C@H](CC(=O)NCCCCc1ccccc1)C2	-1.6%	-21.6%
COc1ccc(NC(=O)CCNS(=O)(=O)c2ccccc2F)cc1S(=O)(=O)N1CCOCC1	-1.2%	60.5%[activator]

Complete entries from above.
`CC=CCn1c(SCCCc2ccccc2)nc2c1c(=O)[nH]c(=O)n2C` as listed: RE007 growth inh = -1.6%; 2A StopGo = -12.5%
`O=C1CSC(=S)N1Cc1ccccc1` as listed: RE007 growth inh = -6.0%; 2A StopGo = -19.7%
`O=C(COc1ccc(C(=O)c2ccccc2)cc1)Nc1ncccc1O` as listed: RE007 growth inh = -14.3%; 2A StopGo = -5.5%

Next structures follow:
SMILES	RE007 growth inh	2A StopGo
Cc1ccc(NC(=O)CSc2nnc3ccccn23)c(Cl)c1	6.9%	51.8%[activator]
CC1CCCC(C)N1C(=O)COC(=O)CNS(=O)(=O)c1ccc2ccccc2c1 (stereo not drawn)	6.9%	-17.4%
CC(C)=C(NC(=O)c1ccccc1Cl)C(=O)NCCc1nc2ccccc2[nH]1	-3.0%	11.4%
OC[C@H]1O[C@@H](O[C@@H]2[C@@H](CO)O[C@@](O)(CO)[C@H]2O)[C@H](O)[C@@H](O)[C@H]1O	4.1%[18.4 µM]	-24.9%
CN(C)C(=S)Oc1ccccc1C1SCCS1	-21.7%	0.0%
